# From PubChem
# Marburg entry inh = qHTS for inhibitors of binding or entry into cells for Marburg Virus; Marburg virus pseudotyped entry inhibition, cell reporter; control for the full effect not named in the record; about a third of the inactives were read at about 46 µM; Potency, µM (doses to about 37.8 µM), for the others: at the top dose activity change, negative = inhibition, usual class: inhibitors; 300,000 compounds, 1.8% hits; AID 540276, 2011; active = well fitted inhibition curve with a large enough effect; inconclusive = small, poorly fitted or top-dose-only effect, or effect the other way; inactive = flat fitted curve, though single readings scatter; tested in HEK293 cells; about a fifth of its hits are not listed in these tables; further: on the % scale 0 is the no-effect control and ±100 the full control effect; luciferase read-out
# SARS PLP yeast = qHTS of Yeast-based Assay for SARS-CoV PLP; S. cerevisiae expressing SARS-CoV PLpro, growth rescue; control for the full effect not named in the record; Potency, µM (top dose mostly 32.9 µM), without a hit: at the highest dose activity, positive = growth rescue; 330,000 compounds, 0.19% hits; AID 485353, 2010; active means well fitted rising curve with a large enough effect; inconclusive means small, poorly fitted or top-dose-only effect; inactive means no such curve, though single readings can be large or run the other way; further: 0% is about no effect; nearly all actives have a fitted effect of over 55% in size; growth read by luminescence after 48 h
# 2A StopGo = High Throughput Screening for Foot and Mouth Disease Virus Antivirals; human cells with a luciferase reporter of 2A StopGo recoding; control for the full effect not named in the record; Potency, µM (highest dose often 57.9 µM), for inactives: top-dose signal change, negative = less light; 410,000 compounds, 1.2% hits; active = well fitted falling curve with a large enough effect; inconclusive = small, poorly fitted or top-dose-only effect; inactive = no such curve, though single readings can be large or run the other way; tested in HEK293T cells; further: on the % scale 0 is the no-effect control and ±100 the full control effect; nearly all actives have a fitted effect of over 45% in size; luciferase light after 4 h
# NS1 function inh = qHTS Assay for Inhibitors of Influenza NS1 Protein Function; S. cerevisiae slowed by influenza A NS1, growth recovery by OD600; Potency, µM (titrated, usually from 46.1 µM), for inactives: at the top dose activity, positive = more growth; 270,000 compounds, 0.4% hits; AID 2326, 2010; active means well fitted rising curve with a large enough effect; inconclusive means small, poorly fitted or top-dose-only effect; inactive means no such curve, though single readings can be large or run the other way; further: nearly all actives have a fitted effect of over 50% in size
#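 Recovery from NS1-induced slow growth read by OD600 in budding yeast switched to galactose assay medium (pH 6.0, -URA) at 1:100 dilution. Compound 23 nl per well; the matching strain lacking NS1 serves as control.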
# Cruzain inh noDet = qHTS Assay for Promiscuous and Specific Inhibitors of Cruzain (without detergent); purified cruzain, Z-FR-AMC fluorescence, no detergent; Potency, µM, inactives show max response, negative = inhibition, hits mostly inhibitors; 200,000 compounds, 2.3% hits;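 further: plate controls were enzyme without inhibitor for no effect and buffer without enzyme for full effect; nearly all actives have a fitted effect of over 40% in size; top concentration of the series not given in the record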
# Target sequence (P25779 123-467 limits assumed): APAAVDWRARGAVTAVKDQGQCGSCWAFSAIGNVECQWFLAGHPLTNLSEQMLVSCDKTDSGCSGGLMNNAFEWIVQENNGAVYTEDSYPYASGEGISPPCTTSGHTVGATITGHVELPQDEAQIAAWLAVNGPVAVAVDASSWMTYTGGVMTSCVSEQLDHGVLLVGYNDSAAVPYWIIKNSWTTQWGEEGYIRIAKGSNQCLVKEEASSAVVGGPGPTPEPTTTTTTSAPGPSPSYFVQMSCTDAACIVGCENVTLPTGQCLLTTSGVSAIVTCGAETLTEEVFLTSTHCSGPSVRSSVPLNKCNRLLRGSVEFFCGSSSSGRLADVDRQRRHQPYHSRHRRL
#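 Purified cruzain at 1.5 nM, pre-incubated 15 min with compound at room temperature in 100 mM sodium acetate pH 5.5, 5 mM DTT, 0.00005% Triton X-100. Reaction started with 2 uM Z-FR-AMC; AMC fluorescence increase over 60 s gives rate.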
# Lassa entry inh = qHTS for Inhibitors of binding or entry into cells for Lassa Virus; Lassa virus pseudotype entry inhibition, cell reporter; control for the full effect not named in the record; Potency, µM (top dose mostly 37.9 µM), without a hit: at the highest dose activity change, negative = inhibition, usual class: inhibitors; 300,000 compounds, 1.2% hits; active means well fitted inhibition curve with a large enough effect; inconclusive means small, poorly fitted or top-dose-only effect, or effect the other way; inactive means flat fitted curve, though single readings scatter; tested in HEK293 cells; further: on the % scale 0 is the no-effect control and ±100 the full control effect; nearly all actives have a fitted effect of over 50% in size; luciferase read-out
# RE007 growth inh = qHTS Assay for Inhibitors of the HIV-1 protein Vpr; Potency, µM (series often up to 92.2 µM), for inactives: at the top dose activity change, negative = less growth; S. pombe RE007 Vpr strain, BacTiter-Glo ATP luminescence, 24 h; control for the full effect not named in the record; 360,000 compounds, 0.21% hits; active = well fitted falling curve with a large enough effect; inconclusive = small, poorly fitted or top-dose-only effect; inactive = no such curve, though single readings can be large or run the other way;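 further: on the % scale 0 is the no-effect control and ±100 the full control effect; nearly all actives have a fitted effect of over 50% in size; the assay follows cell death caused by Vpr and the record does not say whether a fall means rescue or toxicity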
#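 Fission yeast RE007 carrying one integrated HIV-1 vpr copy, seeded at OD 0.01 in PMG+AL medium with 23 nL pinned compound. Grown 24 h at 30 degrees; viability read by BacTiter-Glo luminescence after 5 min.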
# Cruzain Triton = qHTS Assay for Promiscuous and Specific Inhibitors of Cruzain (with detergent). Cruzipain (Trypanosoma cruzi), P25779. purified cruzain, Z-FR-AMC fluorescence, 0.01% Triton. Potency, µM, inactives show max response, negative = inhibition, usual class: inhibitors. 200,000 compounds, 0.43% hits. AID 1478, 2009;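 further: plate controls were neutral wells for no effect and buffer without enzyme for full effect; nearly all actives have a fitted effect of over 40% in size; top concentration of the series not given in the record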
#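 In this qHTS format, compounds are incubated with 1.5 nM cruzain for 15 min at room temperature before 2 uM Z-FR-AMC is added. Release of AMC is followed at 360/450 nm, and progress is taken as the 60 s fluorescence difference.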
# An asterisk follows results filed as active; ? = inconclusive; / = no result given; & = joins results of further samples; [ ] = dose if it differs, or a comment. Unless noted, the call rests on the fitted dose curve; in most records, active means well fitted curve in the direction sought with a large enough effect; inconclusive means small, poorly fitted or top-dose-only effect, or another doubt; inactive means no such curve, though single readings can be large; an effect the other way counts as inactive or inconclusive. Potency means the concentration at half of the fitted maximal effect.
Molecule	Lassa entry inh	Cruzain inh noDet	Cruzain Triton	RE007 growth inh	SARS PLP yeast	Marburg entry inh	NS1 function inh	2A StopGo
CCCCCn1c(Sc2ccccc2)nc2c1c(=O)[nH]c(=O)n2C	/	1%	0.1%	-6%	1%	-5%	-13%	-27%
Cc1ccc(-n2c(=S)[nH]c3c(oc4ccccc43)c2=O)cc1	4%	-6%	-13%	/	-23%	13%	22%	14%
COc1ccc(C(=O)Nc2ccccc2)cc1S(=O)(=O)Nc1ccc(Br)cc1	7%[46.1 µM]	6%	-5.7%	/	/	/	/	64%[activator]
CCCCc1nn2c(=O)cc(COC(=O)CNC(=O)COc3ccc(C)cc3)nc2s1	-24%[46.1 µM]	0%	-2.6%	/	/	/	/	-15%
CCc1ccc(NC(=O)CSc2nc3c(c(=O)[nH]2)CN(Cc2ccc4c(c2)OCO4)CC3)cc1	2%[46.1 µM]	1%	-4.2%	/	/	6%[46.1 µM]	/	-4%
Cc1c2c(nc3ccccc13)CCC(C)C2 (stereo unspecified)	11%	/	/	-13%	3%	3%[46.1 µM]	-3%	23%
CCOC(=O)c1ccc(S(=O)(=O)NNS(=O)(=O)c2ccc(C)cc2)cc1	/	/	/	6%	-4%	/	-2%	-15%
CC(C)Cc1cc(C(=O)Nc2cc(Br)ccc2O)no1	/	-20%	-2.6%	-8%	-15%	/	-7%	20%
O=C(CN1CCCCC1)c1cccc(Br)c1	18%	0%	-6.3%	-23%	-8%	11%	0%	-13%
COc1cccc(CNc2nc3ccccc3c3nc(-c4cccc(C)c4)nn23)c1	/	-15%	-1.8%	/	/	?	/	30%[activator]
O=S(=O)(Nc1cccc(-c2ccc(N3CCCC3)nn2)c1)c1cc(F)ccc1F	?	8%	-4.0%	/	/	/	/	36%[activator]
Cc1ccc2c(c1)COc1c3ccc(C(=O)N[C@@H](C)CO)cc3nn1-2	/	/	/	4%	1%	/	-2%	28%
CCCn1cnnc1CNC(=O)C1CCC(=O)N(CCc2cccc(F)c2)C1 (stereo unspecified)	?	/	/	10%	-3%	-5%[46.1 µM]	-19%	-12%
COC1=CCC2([N+](=O)[O-])CN(CC(=O)O)CC1([N+](=O)[O-])C2 (stereo unspecified)	1%	-2%	-3.9%	-2%	-7%	35%	-6%	-19%
CCOc1ccccc1NC(=O)C(OC(=O)c1cnccn1)c1ccccc1 (stereo unspecified)	4%	/	/	-14%	-1%	-1%	/	-4%
COc1ccc(N/C=C/C(=O)c2ccc3c(c2)OCO3)cc1OC	?	?	-7.3%	?	-14%	?	-36%	23%
CCC1CCCCN1C(=S)NC(=O)c1cccs1 (stereo unspecified)	-1%[46.1 µM]	/	/	-4%	9%	14%[46.1 µM]	-8%	4%
COCCNc1nc2c(c(=O)n(Cc3cccc(Cl)c3)c(=O)n2C)n1C	1%[46.1 µM]	-3%	-1.2%	-6%	0%	15%[46.1 µM]	0%	10%&2%
Cc1ccc(CNC(=O)Nc2ccc(F)cc2)n1C	16%[46.1 µM]	/	/	-8%	-2%	28%[46.1 µM]	9%	11%
N#CC(c1ccc(Cl)nn1)c1ccc(Cl)cc1Cl (stereo unspecified)	?	0%	4.3%	-10%	-15%	?	-36%	46%[activator]
CCOc1ccccc1NC(=O)NCc1cccnc1	-8%[46.1 µM]	/	/	5%	0%	1%[46.1 µM]	/	-15%
Cc1cc(OC(C)C(=O)N2CCN(c3ccc(F)cc3)CC2)c2c(C)c(C)c(=O)oc2c1 (stereo unspecified)	-3%[46.1 µM]	/	/	0%	3%	20%[46.1 µM]	4%	-5%
CCn1c(=S)[nH]c2c(=O)n(C)c(=O)n(C)c21	12%[46.1 µM]	/	/	-12%	/	11%[46.1 µM]	/	14%
CCc1ccc(-n2c(SCC(=O)N3CCC(C(=O)O)CC3)nnc2-c2ccncc2)cc1	5%	/	/	-2%	5%	7%	/	-1%
CC(=O)NC(=O)COC(=O)/C=C/c1c(C)nn(Cc2c(Cl)cccc2Cl)c1Cl	?	?	1.9%	-2%	30%	-21%	-3%	0%
Cc1ccc(C(=O)Nc2ncccc2O)cc1S(=O)(=O)N1CCCCC1	18%	/	/	-12%	8%	-2%	/	-2%
O=c1c2ccccc2sc2ccc(Cl)cc12	7%	-4%	-0.6%	-14%	8%	?	-6%	29%
CCn1c(CN2CCN(CCO)CC2)nc2ccccc21	/	/	/	-2%	1%	/	8%	-5%
COC(=O)C(C)NC(=S)N1CC2C[C@@H](C1)Cn1c2cccc1=O (stereo partly specified)	/	/	/	11%	0%	/	-2%	-11%
CC(C)CCOc1cccc(OCC(=O)NC2CCS(=O)(=O)C2)c1 (stereo unspecified)	?	14%	1.7%	12%	1%	2%	0%	0%

# The final two records of the part before open the next one.
Molecule	Lassa entry inh	Cruzain inh noDet	Cruzain Triton	RE007 growth inh	SARS PLP yeast	Marburg entry inh	NS1 function inh	2A StopGo
COC(=O)C(C)NC(=S)N1CC2C[C@@H](C1)Cn1c2cccc1=O (stereo partly specified)	/	/	/	11%	0%	/	-2%	-11%
CC(C)CCOc1cccc(OCC(=O)NC2CCS(=O)(=O)C2)c1 (stereo unspecified)	?	14%	1.7%	12%	1%	2%	0%	0%
CC1CCCC(C)N1C(=O)CSc1nc2ccccc2s1 (stereo unspecified)	?	-1%	-0.3%	-8%[3.69 µM]	-26%	6%	-2%	36%[activator]
CCOC(=O)c1cccc(NC(=O)C(C)n2nc(C)c3c(C)n(-c4ccccc4)nc3c2=O)c1 (stereo unspecified)	-17%[46.1 µM]	20%	-5.2%	/	/	/	/	?
Cc1nonc1CC(=O)N1CCCC(C(=O)c2ccc(Cl)cc2)C1 (stereo unspecified)	/	/	/	-20%	0%	/	1%	14%
O=C(CN(Cc1cccs1)S(=O)(=O)c1ccc(S(=O)(=O)NC2CCCCC2)cc1)Nc1ccccc1	?	11%	-3.4%	-4%	-13%	?	16%	3%
CCn1c(Oc2ccc(F)cc2)nc2c1c(=O)n(C)c(=O)n2C	4%[46.1 µM]	/	/	-13%	3%	23%[46.1 µM]	-3%	-13%
O=C(NC(NC(=O)c1ccccc1)c1ccccc1)c1ccccc1	-17%	?	-2.7%	1%	7%	-28%	2%	/
O=C(Nc1ccccc1F)c1coc(=O)c(Br)c1	-8%	/	/	9%	3%	-19%[46.1 µM]	/	-27%
CCC(=O)CC(c1ccccc1)c1c(O)c2ccccc2sc1=O (stereo unspecified)	4%	-10%	-14%	3%	-50%	8%	-30%	-15%
CN1CCN(c2nc3c(c(=O)n(C)c(=O)n3C)n2CCSc2nc3ccccc3s2)CC1	/	/	/	17%	1%	/	-74%	-5%
COc1cc(-c2nnc3sc(-c4cccs4)nn23)cc(OC)c1OC	?	10%	-1.0%	13%	2%	?	-3%	-3%
COc1ccc(N2CC(C(=O)Nc3nnc(SCC(=O)NC4CCCC4)s3)CC2=O)cc1 (stereo unspecified)	0%	/	/	-13%	4%	-13%	7%	-4%
Cc1nc2c(cc1C#N)C(=O)c1ccccc1-2	17%	1%	-0.3%	12%	23%	8%[46.1 µM]	9%	-9%
CCN(CC)CC(=O)Nn1c(C)nc2c(ncn2-c2ccccc2)c1=O	/	/	/	0%	-2%	/	1%	7%
COc1ccc(Nc2ncnc3sccc23)cc1OC	19%[46.1 µM]	/	/	-21%	-3%	11%[46.1 µM]	-3%	25%
COc1cc(/C=N/NC(=O)C(=O)Nc2ccccn2)ccc1O	11%	4%	-7.7%	-9%	26%	33%	0%	8%
CCc1cccc(NC(=O)Cn2nc3c4cc(F)ccc4n(Cc4cccc(C)c4)cc-3c2=O)c1	-3%[46.1 µM]	6%	-0.9%	/	/	/	/	-24%
COc1ccc(C(=O)CSc2nnc(CNC(=O)c3ccc(OC)cc3)n2C)cc1	8%	4%	-4.7%	-8%	-3%	-4%	-10%	/
O=C1CC(C(=O)N2CCC3(CC2)OCCO3)CN1CCc1ccccc1 (stereo unspecified)	2%	-1%	1.4%	-5%	0%	-6%	-7%	-4%
Cc1c(Cl)c(C(=O)N2CCCc3ccccc32)nn1C	23%	-2%	3.5%	22%	-7%	-13%	-36%	11%
CCSc1ccccc1C(=O)NCc1ccco1	4%	-4%	-5.5%	0%	5%	-3%	1%	9%
COc1ccc(N(CC(=O)NCc2ccc3c(c2)OCO3)C(=O)c2csnn2)cc1	3%	/	/	-13%	1%	?	5%	43%[activator]
Cc1ccc2ncc3c(-c4ccccc4)nn(CC(=O)NC4CCCCC4)c3c2c1	2%[46.1 µM]	-1%	2.0%	/	/	/	/	1%
COc1cc(/C=N/NC(=O)C(=O)NCC2CCCO2)ccc1OCC(=O)N1CCOCC1 (stereo unspecified)	/	/	/	-12%	-5%	12%[46.1 µM]	/	3%
CN(CC(=O)Nc1ccc(N2CCOCC2)cc1)C(=O)CCc1cc(C(C)(C)C)c(O)c(C(C)(C)C)c1	0%	/	/	-10%	-3%	-3%	/	17%
COc1cccc(CN2CCNC(=O)C2CC(=O)NCCN2CCOCC2)c1OC (stereo unspecified)	-6%	/	/	16%	1%	19%	-4%	0%
CCc1ccccc1N1C(=O)NC(=O)/C(=C\c2cc(C)n(C)c2C)C1=O	-12%	13%	-5.9%	0%	4%	-5%	12%	-20%
O=C(Nc1ccc2c(c1)oc1ccccc12)c1ccc2c(c1)OCO2	3%	?	-1.4%	-12%	-2%	?	-4%	16%
